Screening data from PubChem.
gsp agonist: qHTS for Agonist of gsp, the Etiologic Mutation Responsible for Fibrous Dysplasia/McCune-Albright Syndrome: qHTS. Potency, µM (top dose mostly 76.9 µM), for the others: at the highest dose activation (cAMP increase), usual class: activators. 340,000 compounds, 0.13% hits. AID 624287, 2012. gsp mutant cells, cAMP HTRF, 30 min; control for the full effect not named in the record; active = well fitted activation curve with a large enough effect; inconclusive = small, poorly fitted or top-dose-only effect, or another doubt; inactive = no such curve, though single readings can be large or run the other way; cell line not stated here;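 also: phosphodiesterase inhibitor Ro 20-1724 added with compounds to block cAMP breakdown; potency is read from the fitted curve at half-maximal effect; nearly all actives have a fitted effect of over 60% in size; about a fifth of the inactives were tested at one dose only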
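Cells stably selected in G418 were plated at 2000/well, grown 16-24 hr, then given compounds in DMSO with the PDE inhibitor […] (300 uM solution added) for 30 min at 37C; cAMP was read by HTRF.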
ClpP mod: qHTS Assay for Activators of ClpP; ATP-dependent Clp protease proteolytic subunit (Bacillus subtilis (strain 168)), P80244; 340,000 compounds, 1.9% hits; purified B. subtilis ClpP, FRET peptide cleavage, 20 min; Potency, µM (titrated, usually from 57.5 µM), inactives show at the top dose activity change, negative = active; active = well fitted falling curve with a large enough effect; inconclusive = small, poorly fitted or top-dose-only effect; inactive = no such curve, though single readings can be large or run the other way; also: potency is read from the fitted curve at half-maximal effect; the source files actives as falling curves though it sought activators and does not explain the sign; nearly all actives have a fitted effect of over 65% in size; many hits overshoot -100%
Target sequence (P80244 whole entry, looked up): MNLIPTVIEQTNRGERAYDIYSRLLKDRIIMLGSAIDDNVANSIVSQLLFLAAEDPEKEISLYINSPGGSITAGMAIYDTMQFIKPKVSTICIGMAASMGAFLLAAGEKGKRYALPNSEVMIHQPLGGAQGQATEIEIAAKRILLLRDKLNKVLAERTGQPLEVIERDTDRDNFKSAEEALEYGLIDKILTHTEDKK
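FRET quenching reversal measured ClpP activation: 10 microg/mL B. subtilis ClpP at pH 8 with the FRET-FV decapeptide, read at 430 nm after 320 nm excitation. The 20-min minus 0-min signal was scaled between DMSO/no-enzyme wells and ADEP (5.8 microM final).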
gsp antag: qHTS for Antagonists of gsp, the Etiologic Mutation Responsible for Fibrous Dysplasia/McCune-Albright Syndrome: qHTS. AID 624288, 2012. Potency, µM (top dose mostly 76.9 µM), inactives show at the top dose activity change, negative = inhibition, most hits filed as inhibitors. gsp-mutant cells, cAMP HTRF, 30 min; control for the full effect not named in the record. 340,000 compounds, 0.4% hits; active = falling curve of any shape with a large fitted effect; inconclusive = falling curve, mostly with a smaller effect; inactive = flat or rising curve; cell line not stated here;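 also: intracellular cAMP measured with PDE inhibitor Ro 20-1724 present during compound exposure; potency is read from the fitted curve at half-maximal effect; % is scaled to controls: 0 for no effect and ±100 for the full control effect; nearly all actives have a fitted effect of over 65% in size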
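Cells in G418 medium, seeded 16-24 h, 37C; buffer exchange to DPBS + 1 mM CaCl2, 0.5 mM MgCl2, 0.05% BSA; cpds in DMSO + […] (300 uM stock), 30 min 37C; HTRF cAMP detection.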
Menin-MLL FL inh: qHTS Assay for Inhibitors Targeting the Menin-MLL Interaction in MLL Related Leukemias: Competition With Fluorescein Labeled MLL-derived Peptide; Fluorescence polarization, fluorescein-MLL peptide displacement from menin; AID 1766, 2009; 290,000 tested, under 10 active; FP activity change, % at 61.4 µM; inconclusive = falling polarisation curve, or a change in total fluorescence; inactive = total fluorescence flat and polarisation flat or rising; no compound was filed as active; the % refers to the polarisation; negative = inhibition;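 also: % of control where 0% means no effect; inhibitors lower the polarisation; unlabelled MLL peptide was the positive control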
Sfp inh: qHTS Assay for Inhibitors of Bacillus subtilis Sfp phosphopantetheinyl transferase (PPTase) | 310,000 compounds, 3.5% hits | Potency, µM, inactives show max response, negative = inhibition, most hits filed as inhibitors | Biochemical Sfp PPTase activity, qHTS | 4'-phosphopantetheinyl transferase ffp (Bacillus subtilis), Q9F4F7; active = well fitted inhibition curve with a large enough effect; inconclusive = small, poorly fitted or top-dose-only effect, or another doubt; inactive = no such curve, though single readings can be large or run the other way;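 also: the enzyme is Sfp with the accession as filed and its product quenches rhodamine fluorescence; potency is read from the fitted curve at half-maximal effect; 0% = enzyme reaction without inhibitor and -100% = no enzyme wells; top concentration of the series not given in the record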
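Fluorescence-quenching assay with 15 nM Sfp, 5 uM rhodamine-CoA and 12.5 uM BHQ-2-labelled ybbR peptide in pH 7.6 Hepes/MgCl2 buffer. Enzyme was pre-incubated with compound for 15 min at room temperature. Rate was taken from the 30-min fluorescence change (525/598 nm).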
TRPV1 potentiator: HTS Assay for Compounds that Act as Potentiators of the Vanilloid Receptor 1 | Transient receptor potential cation channel subfamily V member 1 (Homo sapiens), Q8NER1 | TRPV1-expressing cells, Fluo-8 calcium influx, capsaicin EC20 potentiation; host cell line not named in the record; control for the full effect not named in the record | potentiation, % at 8.33 µM | 320,000 compounds, 0.02% hits | AID 540277, 2011; active means potentiation above 80%; inconclusive means 30% to 80%; inactive means below 30%; also: 0% is about no effect
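TRPV1-expressing cells were cultured overnight at 35.5C and loaded with Fluo-8 calcium dye for 40 to 90 min at room temperature. After a 10 s baseline, compound was added and calcium influx was read kinetically for 3 min (ex 480/em 520 nm).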
D2 potentiator: Beta-Arrestin HTS for Positive Allosteric Modulators of the Human D2 Dopamine Receptor: Potentiators; D(2) dopamine receptor (Homo sapiens), P14416; DiscoveRx D2 beta-arrestin cells, luminescence, 90 min; 100% = 57 uM dopamine signal; potentiation, % (concentration not given with the values); 360,000 compounds, 0.23% hits; AID 624464, 2012; active = potentiation of 50% or more; inconclusive = 30% to 50%; inactive = 30% or less;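 also: tested on top of an EC20 dose of dopamine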
Target sequence (P14416 whole entry, looked up): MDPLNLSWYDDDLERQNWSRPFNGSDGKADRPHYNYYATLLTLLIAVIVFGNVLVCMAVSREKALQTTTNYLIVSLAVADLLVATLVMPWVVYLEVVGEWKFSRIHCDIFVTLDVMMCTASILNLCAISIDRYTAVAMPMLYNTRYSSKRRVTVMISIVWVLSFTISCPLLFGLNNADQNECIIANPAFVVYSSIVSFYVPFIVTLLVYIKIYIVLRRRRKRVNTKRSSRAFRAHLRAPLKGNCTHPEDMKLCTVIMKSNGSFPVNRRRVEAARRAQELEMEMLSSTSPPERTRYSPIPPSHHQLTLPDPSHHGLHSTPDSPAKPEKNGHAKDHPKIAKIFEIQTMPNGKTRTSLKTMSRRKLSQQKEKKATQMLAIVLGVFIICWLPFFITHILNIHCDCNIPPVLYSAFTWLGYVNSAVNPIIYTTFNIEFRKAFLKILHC
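D2 cells co-treated with compound plus 50 nM dopamine (EC20) for 90 min at 37 deg C to detect potentiation. Beta-arrestin recruitment was read as enzyme-fragment luminescence after 1 h at ambient temperature. Full response was set by 57 uM dopamine.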
* marks the source's active call; other numbers are inactive results; ? = inconclusive; / = no result given; [ ] = dose if it differs, or a comment.

item	SMILES	gsp agonist	ClpP mod	gsp antag	Menin-MLL FL inh
1	C#Cc1ccc([C@H]2C=C(C(=O)OCC=C)O[C@@H](OCCCCO)C2)cc1	/	0.5%	-18%	/
2	O=c1cc(CN2CCN(c3ccccc3F)CC2)c2cc3c(cc2o1)CCCC3	?	-1.5%	8%	6.4
3	O=C(O)c1cc(S(=O)(=O)NCCOc2ccccc2)ccc1Cl	-1%[15.4 µM]	-0.5%	6%	/
4	COC(=O)c1ccccc1NC(=O)N1CCN(S(=O)(=O)c2ccc(Cl)cc2)CC1	22%	?	-18%	-0.4
5	COc1ccc(CNc2nc3c(c(=O)n(Cc4ccc(F)cc4)c(=O)n3C)n2C)cc1	?	-0.1%	-27%	2.0
6	O=C(NCC(=O)N1CC(O)CC1C(=O)N1CC(O)CC1C(=O)OCc1ccccc1)OCc1ccccc1 (stereo unspecified)	-2%	-1.5%	-9%	-0.7
7	COc1ccc(C(=O)Nc2cc(C(=O)c3ccccc3)c(C)oc2=O)cc1	?	-5.5%	-2%	5.1
8	O=[N+]([O-])c1cc(-c2csc(NC(CO)c3nc4ccccc4n3CCOCCO)n2)ccc1Cl (stereo unspecified)	-23%	1.2%	11%	/

item	Sfp inh	TRPV1 potentiator	D2 potentiator
1	/	/	-25
2	-3%	-4	-16
3	/	/	-4
4	5%	-3	-5
5	17%	29	-7
6	-10%	-7	-6
7	10µM*	-5	-28
8	/	/	-5

(cont.)
item	SMILES	gsp agonist	ClpP mod	gsp antag	Menin-MLL FL inh
9	O=C(Nc1cc(C(F)(F)F)ccc1Cl)c1ccc(NC(=O)C(F)(F)F)cc1	-7%[15.4 µM]	-2.2%	?	1.3
10	O=C1CSC(=S)N1c1ccc(O)cc1	-50%[inhibitor]	0.8%	-3%	-1.7
11	CC(=O)c1ccc(S(=O)(=O)N(C)CC(=O)NCc2ccco2)cc1	2%	1.4%	8%	/
12	CCOC(=O)N1CCN(C(=O)c2ccc(OCC)cc2)CC1	-16%[15.4 µM]	/	3%	-5.8
13	COC(=O)CN1CCN(C(=O)c2ccco2)CC1	2%	1.7%	2%	/
14	COc1ccc(-c2cnc3n2CCCCC3)cc1	1%[15.4 µM]	-1.3%	6%	0.7
15	COc1ccc(C(=O)COC(=O)CCN2C(=O)C3C4CCC(C4)C3C2=O)cc1 (stereo unspecified)	-5%[15.4 µM]	/	-6%	2.7
16	COc1ccc(Nc2nc(NCc3ccco3)nc(N/N=C/c3ccccc3F)n2)cc1	10%	-12%	-4%	9.3

item	Sfp inh	TRPV1 potentiator	D2 potentiator
9	24%	-4	-1
10	-10%	-9	-11
11	/	-17	0
12	-18%	-10	-1
13	-20%	-12	1
14	20%	-19	-6
15	19%	-3	-5
16	18%	-17	-22

A few values from the entries so far:
Result of COc1ccc(C(=O)COC(=O)CCN2C(=O)C3C4CCC(C4)C3C2=O)cc1 (stereo unspecified) in TRPV1 potentiator: -3
Result of O=C(Nc1cc(C(F)(F)F)ccc1Cl)c1ccc(NC(=O)C(F)(F)F)cc1 in gsp agonist: -7%[15.4 µM]
Result of COC(=O)CN1CCN(C(=O)c2ccco2)CC1 in Sfp inh: -20%
Result of COc1ccc(Nc2nc(NCc3ccco3)nc(N/N=C/c3ccccc3F)n2)cc1 in D2 potentiator: -22

Complete entries, looked up by structure. Screens in order: gsp agonist, ClpP mod, gsp antag, Menin-MLL FL inh, Sfp inh, TRPV1 potentiator, D2 potentiator
CCOC(=O)N1CCN(C(=O)c2ccc(OCC)cc2)CC1 is listed as -16%[15.4 µM], /, 3%, -5.8, -18%, -10, -1
COc1ccc(Nc2nc(NCc3ccco3)nc(N/N=C/c3ccccc3F)n2)cc1 is listed as 10%, -12%, -4%, 9.3, 18%, -17, -22
O=C1CSC(=S)N1c1ccc(O)cc1 is listed as -50%[inhibitor], 0.8%, -3%, -1.7, -10%, -9, -11

Next section:
item	SMILES	gsp agonist	ClpP mod	gsp antag	Menin-MLL FL inh
17	COc1ccc(N2CCN(C(CNC(=O)C(C)C)c3ccc4c(c3)OCO4)CC2)cc1 (stereo unspecified)	-38%[inhibitor]	-11%	1%	2.0
18	O=C(NC1CCS(=O)(=O)C1)c1cc2c(=O)n3ccccc3nc2n1Cc1ccccc1 (stereo unspecified)	?	3.8%	/	/
19	CCOC(=O)C1CCN(C(=O)COc2ccc3c(C)cc(=O)oc3c2)CC1	10%[15.4 µM]	/	-19%	/
20	Cc1ccc(C)n1CCN1CCN(C(=O)c2ccco2)CC1	?	-1.6%	1%	4.6
21	CCCc1nn2c(=O)cc(CSCC(=O)Nc3ccc(F)cc3)nc2s1	78%	0.1%	-1%	0.3
22	CC(=O)Nc1ccc(N2C(=O)CC(Sc3nccc(C)n3)C2=O)cc1 (stereo unspecified)	-38%[inhibitor]	/	14%	-3.2
23	Cc1cccc(C)c1OCC(=O)Nc1cccc(S(=O)(=O)N2CCCC2)c1	-9%[15.4 µM]	0.4%	-18%	/
24	COc1ccc(NC(=O)C2CCN(S(=O)(=O)c3c(C)noc3C)CC2)cc1Cl	-26%	6.5%	1%	5.3

item	Sfp inh	TRPV1 potentiator	D2 potentiator
17	-5%	-2	-19
18	/	/	-3
19	/	-7	0
20	10%	-8	-29
21	8%	-8	-9
22	12%	9	-1
23	/	?	2
24	16%	-15	-14

(further entries)
item	SMILES	gsp agonist	ClpP mod	gsp antag	Menin-MLL FL inh
25	COc1ccc(NC(=O)c2ccncc2)cc1S(=O)(=O)N1CCCCC1	-17%	-0.2%	/	/
26	CN(C(=O)CNC(=O)c1ccc(Br)o1)C1CCCCC1	15%	-5.3%	-9%	-0.4
27	CCc1ccc(C2CC(=O)NC(SCC(=O)OC(C)C)=C2C#N)cc1 (stereo unspecified)	-4%	2.2%	-11%	-2.5
28	CCOC(=O)c1nnsc1-c1ccc(-c2snnc2C(=O)OCC)cc1	-10%	2.8%	-4%	-4.8
29	CC(=O)Nc1ccc(C2=NN(CC#N)C(=O)SC2)cc1	3%	0.2%	3%	-2.0
30	O=C1CCN(Cc2ccccc2)N1	3%	0.2%	18%	-5.8
31	CCCCCN(C(=O)CCC(=O)OCC(=O)N(CC#N)c1ccccc1)c1c(N)n(CCCC)c(=O)[nH]c1=O	6%[15.4 µM]	-2.4%	1%	/
32	CCOC(=O)Nc1ccc(S(=O)(=O)NC2CCCCC2)cc1	25%	/	-4%	0.1

item	Sfp inh	TRPV1 potentiator	D2 potentiator
25	/	/	-21
26	3%	12	-14
27	6%	-8	-10
28	4%	10	-6
29	14%	3	-8
30	2%	-14	-5
31	/	12	3
32	18%	18	3

Later entries
item	SMILES	gsp agonist	ClpP mod	gsp antag	Menin-MLL FL inh
33	CCOC(=O)N1CCN(C(=O)c2cc(C)no2)CC1	-31%[inhibitor]	-1.9%	-5%	0.5
34	O=C(C[n+]1cccc(O)c1)NCc1ccc(Cl)cc1	?	/	9%	3.4
35	CCOC(=O)c1nnn(CC(=O)Nc2ccccc2OC)c1C(=O)OCC	-3%	1.5%	14%	2.0
36	O=S(=O)(c1cccc(-c2nnc3n2CCCCC3)c1)N1CCCC1	10%[15.4 µM]	/	14%	0.6
37	O=C(c1cnn(C(=O)COc2ccccc2F)c1)c1cc(F)ccc1O	4%	/	-3%	9.7
38	COc1ccc(/C=C(\NC(=O)c2ccccc2)C(=O)OC[C@@H]2CCC[N+]3(C)CCCCC23)cc1OC (stereo partly specified)	?	-7.1%	0%	-0.6
39	CC(/C(O)=C(\C#N)c1nc2ccccc2n1C)N1C(=O)c2ccccc2C1=O (stereo unspecified)	/	/	/	4.1
40	O=C(Cc1ccccc1F)Nc1cc(S(=O)(=O)N2CCOCC2)ccc1N1CCOCC1	9%	-0.6%	-8%	/

item	Sfp inh	TRPV1 potentiator	D2 potentiator
33	13%	4	-2
34	1%	?	-3
35	14%	10	-16
36	22%	4	-18
37	20%	-11	-7
38	13%	-4	-9
39	11%	7	/
40	/	7	-2

Later entries.
item	SMILES	gsp agonist	ClpP mod	gsp antag	Menin-MLL FL inh
41	CCOc1ccc(N/C(C)=C/C(=O)c2ccc3c(c2)OCCO3)cc1	6%[15.4 µM]	-3.6%	?	4.5
42	NC(=O)COC(=O)CCCc1nc2ccccc2s1	-32%[inhibitor]	0.4%	-1%	-0.8
43	COc1ccccc1CNC(=O)CN(C)S(=O)(=O)c1ccc(F)cc1	-33%[inhibitor]	/	-2%	1.9
44	CC(C)(C)c1ccc(C(=O)NCc2nnc(SCC(=O)NC3CCCC3)o2)cc1	-20%	-0.3%	4%	3.2
45	CCCCOC(=O)Nc1nc(C)c(C(=O)OCC)s1	-9%	-2.1%	1%	3.4
46	O=C(/C(=N\O)n1cncn1)c1ccc(Br)cc1Br	-44%[inhibitor]	0.5%	-24%	?
47	CCOc1ccc(NC(=O)c2ccc(NC(=S)NC3CC3)cc2)cc1	-4%[15.4 µM]	/	12%	-0.3
48	COc1cc(C(=O)NC2CCN(CC(=O)NC3CCCCC3)CC2)cc(OC)c1OC	-7%[15.4 µM]	/	10%	-1.1
49	COc1ccc(C(=O)CSc2nc(C)cc(C)n2)cc1C	-34%[inhibitor]	-1.0%	-6%	5.0

item	Sfp inh	TRPV1 potentiator	D2 potentiator
41	?	/	-6
42	-9%	-2	0
43	9%	19	-6
44	7%	3	4
45	-3%	/	-3
46	-13%	-4	4
47	-10%	-10	-5
48	15%	-30	-12
49	-4%	-8	?
